H5N1 CPE = MDCK cell protection from H5N1 avian flu. cytopathic effect, luminescence, 72 h; hits give high values; no value below 0 was filed and about half of the inactive calls have no number; reference of the scale not given here. inhibition, % at 50 µM. actives 0.07% (n = 96,000); in the data active = inhibition above about 25%
An asterisk follows results filed as active; i = inactive. An excerpt, so the mix of outcomes need not match the whole.

SMILES	H5N1 CPE
COc1ccc(C2C(C(=O)NCc3ccccn3)c3cc(OC)c(OC)cc3C(=O)N2C)cc1 (configuration not stated)	i
O=C(CN1CCN(C2CCCCC2)CC1)c1c[nH]c2ccccc12	0.4
COc1ccccc1-c1coc2c(CN3CCN(C)CC3)c(O)ccc2c1=O	i
COc1ccc(C2N=C(Nc3ccc(C)cc3)Nc3nc(C)cc(=O)n32)cc1 (configuration not stated)	0.5
O=[N+]([O-])c1ccc(/C=N/Nc2nc(-c3ccccc3)c3cc(Br)ccc3n2)o1	1.9
O=C(CCCN1C(=O)c2ccccc2C1=O)N1CCC(c2ccccc2)C1 (configuration not stated)	0.8
CCOC(=O)c1ccccc1NC1c2ccccc2C(=O)N1c1cc(C)ccn1 (configuration not stated)	i
Cn1nnnc1SCC(=O)NCCc1ccc(Cl)cc1	1.3
COC(=O)c1cc(NC(=O)C2CC=CCC2C(=O)O)cc(C(=O)OC)c1 (configuration not stated)	0.3
CCOC(=O)c1nc(N2CCN(C(=O)OCC)CC2)c2c3c(sc2n1)CCCC3	3.0
c1ccc2c(c1)[nH]c1c(N3CCOCC3)ncnc12	2.8
CC(C)CC(OC(=O)c1ccco1)C(=O)NC1CCCCC1 (configuration not stated)	0.9
O=C1CC(c2ccco2)Cc2nc(Nc3nc(-c4ccccc4)c4ccccc4n3)ncc21 (configuration not stated)	i
C=C(C)CSC1=C(C#N)C(c2ccsc2)CC(=O)N1 (configuration not stated)	0.9
CCN1CCN(S(=O)(=O)c2cccc3nsnc23)CC1	i
CN(C)c1nc(Nc2ccc(Cl)cc2)nc(OCC#N)n1	0.7
CCC(=O)Nc1ccc(Oc2ccc3c(c2)C(=O)NC3=O)cc1	0.4
Cc1cc(C2C(C#N)=C(N)Oc3n[nH]c(C)c32)c(C)s1 (configuration not stated)	i
CCN(CC)S(=O)(=O)c1ccc(NC(=O)COC(=O)CN2C(=O)c3ccccc3C2=O)cc1	0.2
CCOC(=O)Cn1c2c(c(=N)c3ccccc31)CCC2	1.0
O=C(O)C1CCC(N2C(=O)C3CCCCC3C2=O)CC1 (configuration not stated)	i
COc1ccc(NS(=O)(=O)c2cc([N+](=O)[O-])ccc2N/N=C\c2c(C)[nH]c3ccccc23)cc1	2.4
COc1ccc(-c2cc(C(=O)O)c3ccccc3n2)c(OC)c1	i
O=C(COC(=O)CN1C(=O)c2ccccc2C1=O)Nc1ccc(S(=O)(=O)N2CCCC2)cc1	1.0

Among those listed so far, these contain a furan ring, fused or not.
SMILES	H5N1 CPE
O=[N+]([O-])c1ccc(/C=N/Nc2nc(-c3ccccc3)c3cc(Br)ccc3n2)o1	1.9
CC(C)CC(OC(=O)c1ccco1)C(=O)NC1CCCCC1 (configuration not stated)	0.9
O=C1CC(c2ccco2)Cc2nc(Nc3nc(-c4ccccc4)c4ccccc4n3)ncc21 (configuration not stated)	i

Continuation.
SMILES	H5N1 CPE
Cc1cccc2c1CC(C)(C)N=C2C1=C(O)CCCC1=O	i
COc1ccc2ccccc2c1C1CC(=O)N2CN(C)CSC2=C1C#N (configuration not stated)	8.4
Nc1nc2n(n1)C(c1cccc(Cl)c1)CC(c1ccc(F)cc1)N2 (configuration not stated)	i
O=C1CCCC/C1=C/Nc1ccc(C(=O)O)cc1	1.2
O=C1CC(c2ccccc2)CC(O)=C1C=NCc1ccco1 (configuration not stated)	1.6
O=C(c1cnc2n(c1=O)CCS2)N1CCN(c2ccc([N+](=O)[O-])cc2)CC1	0.6
COC(=O)c1ccccc1NC(=O)CN1CCC(n2nnc3cc(F)ccc32)CC1	i
Cc1nnc(NC(=O)CSc2nc(C(C)C)nc3ccccc23)s1	i
COc1ccc(-c2cc(=O)n(-c3nc4ccccc4[nH]3)[nH]2)cc1	0.2
Cc1n[nH]c(=O)nc1NCc1ccco1	1.3
Cc1cc2c(nn1)CCC/C2=N\O	0.8
COc1ccccc1COCC(O)CNCC1(N2CCCCC2)CCCCC1 (configuration not stated)	1.1

Random excerpt: 3 records from the list.
SMILES	H5N1 CPE
Cc1cc2c(nn1)CCC/C2=N\O	0.8
Cc1cccc2c1CC(C)(C)N=C2C1=C(O)CCCC1=O	i
COc1ccc2ccccc2c1C1CC(=O)N2CN(C)CSC2=C1C#N (configuration not stated)	8.4

Going on with the list.
SMILES	H5N1 CPE
CCOC(=O)C(/C=C(\C#N)C(=O)OCC)=C(/N)N1CCN(c2ccccc2)CC1	i
Cc1noc(C)c1C(=O)N1CCC2(CC1)OCCO2	i
Cc1ccccc1NC(=O)/C(=C\c1cccs1)NC(=O)c1ccco1	i
CCCCC(=O)Nc1ccc2c(c1)C(=O)NC2=O	i
CCC(c1nnnn1Cc1cccs1)N1CCN(C2CCCC2)CC1 (configuration not stated)	1.0
COc1ccc(CN2C(=O)CCC2(C)C(=O)NC2CCCCCC2)cc1 (configuration not stated)	i
CCCCNC(=S)NC(=O)c1ccc([N+](=O)[O-])cc1	1.9
Cc1[nH]c2ccccc2c1/C=N/O	0.0
O=C(CC1Sc2ccccc2NC1=O)OCC(=O)N1CCc2ccccc21 (configuration not stated)	i
COC(=O)c1cc2ccccc2c(-c2c(OC)c(C(=O)OC)cc3ccccc23)c1OC	i
CCCC(=O)Nc1nnc(SCC(=O)NCc2cccs2)s1	0.7
CCOc1ccc(C(C)(O)CN2CCOCC2)cc1 (configuration not stated)	0.6

The closing 6 records of the section before come first, to join the parts.
SMILES	H5N1 CPE
CCCCNC(=S)NC(=O)c1ccc([N+](=O)[O-])cc1	1.9
Cc1[nH]c2ccccc2c1/C=N/O	0.0
O=C(CC1Sc2ccccc2NC1=O)OCC(=O)N1CCc2ccccc21 (configuration not stated)	i
COC(=O)c1cc2ccccc2c(-c2c(OC)c(C(=O)OC)cc3ccccc23)c1OC	i
CCCC(=O)Nc1nnc(SCC(=O)NCc2cccs2)s1	0.7
CCOc1ccc(C(C)(O)CN2CCOCC2)cc1 (configuration not stated)	0.6
CCOC(=O)C1CCCN(Cc2nc(N)nc(Nc3ccccc3)n2)C1 (configuration not stated)	i
COC(=O)c1ccccc1NC(=O)Cn1cc2c(n1)CCC(C)C2 (configuration not stated)	1.6
COc1cccc(C2CC(c3ccc(Cl)cc3Cl)Nc3nc(N)nn32)c1 (configuration not stated)	i
Cc1ccc(F)cc1NC(=O)c1ccc2c(c1)OCO2	0.5
COC(=O)C1=C(C)N(C)C(C)=C(C(=O)OC)C1c1cccc(Br)c1	i
OCCOCCOCCn1c2ccccc2c2ccccc21	0.5
COC(=O)c1[nH]c2ccc(C)cc2c1NC(=O)CN1CCN(Cc2ccccc2)CC1	0.7
Cn1c(=O)[nH]c(=O)c2c1nc(N1CCc3ccccc3C1)n2CCSc1nc2ccccc2s1	i
CCOC(=O)c1c(N)sc(C(=O)N2CCCCCC2)c1C	0.4
CCC1(O)c2ccccc2-c2ncccc21 (configuration not stated)	i
COCCn1c(C)cc(C2=NNC(=Nc3ccc(Cl)cc3Cl)SC2)c1C	i
CCCCn1cnc2c1c(=O)n(CC(=O)c1cc(C)n(C)c1C)c(=O)n2CC(C)C	0.2
Cc1ccc(S(=O)(=O)N2C(=O)CCC2C(=O)Nc2ccc3c(c2)OCCO3)cc1 (configuration not stated)	1.1
COCCCNC(=O)CCSc1ccc(Cl)cc1	i
COc1ccc(/C=C2/C(=O)NC(=O)N(C3CCCCC3)C2=O)cc1CSc1ccccn1	0.3
COc1ccc(C2C(C#N)=C(N)Oc3cc(C)n(Cc4ccncc4)c(=O)c32)cc1 (configuration not stated)	1.6
CCOc1ccc(NC(=O)N2CCC(C(=O)c3ccc(F)cc3)CC2)cc1	0.9
O=C(/C=C/c1cccc([N+](=O)[O-])c1)NCCSc1ccccc1	i
COC(=O)c1cc(NC2c3ncccc3C(=O)N2Cc2ccccc2)cc(C(=O)OC)c1 (configuration not stated)	i
Cc1[nH]c2ccc(C(=O)OCCN(C)C)cc2c1C	i
N=c1sccn1CC(=O)NCCc1ccc(Cl)cc1	i
CCCCn1c(CCC(=O)O)nc2c1c(=O)[nH]c(=O)n2CCC	1.1
CC1CCN(S(=O)(=O)c2cccc(C(=O)N(C)C3CCS(=O)(=O)C3)c2)CC1 (configuration not stated)	i
Cc1ccc(NC(=O)COC(=O)c2ccc3c(c2)NC(=O)C2CCCN32)cc1C (configuration not stated)	1.4
O=C(Nc1cccc(O)c1)c1noc2c1CCCCC2	2.6
CC(=O)N(C(C)=O)c1ncc2c([nH]c3ccccc32)c1C#N	i
Cc1ccccc1-c1nnc(-c2ccccc2)o1	i
CCCCC(O)(CCN1CCOCC1)c1ccc(Cl)cc1 (configuration not stated)	3.2
O=C(NCCc1ccccc1)C(c1cccs1)N(C(=O)c1csnn1)C1CC1 (configuration not stated)	i
CCOC(=O)c1[nH]nc(N)c1NC(=O)c1ccc(Cl)cc1Cl	0.3
O=C(COC(=O)c1cc(S(=O)(=O)N2CCCCC2)ccc1N1CCOCC1)NC1CCCCC1	0.6
COc1ccc(-n2c(=S)[nH]c3cc(C(=O)NCCCN4CCCC4=O)ccc3c2=O)cc1OC	1.0
COc1ccc(-c2nc(SCc3ccccc3)n(C(=O)c3ccco3)n2)cc1	0.2
Cn1cccc1/C=C1\CC(C(C)(C)C)C/C(=C\c2cccn2C)C1=O (configuration not stated)	i
CC(C)CNC(=O)NC(=O)COc1ccc(C=O)cc1	0.4
CCOC(=O)c1c(-c2cccs2)csc1NC(=O)CN1CC(C)OC(C)C1 (configuration not stated)	0.3
CCn1c(SCC(=O)N/N=C/C=C\c2ccccc2[N+](=O)[O-])nnc1-c1ccccc1	0.4
COc1cc(C(=O)Nc2ccc(O)cc2C(=O)O)ccc1OC(C)=O	i
CCCCN(C)CCCNC(=O)CS(=O)Cc1nc(-c2ccc(OC)c(OC)c2)oc1C (configuration not stated)	0.4
O=C(Nc1ccsc1C(=O)N1CCCCCC1)c1ccccc1	2.4
COc1cc(OC)cc(-c2nc3nc(C)c(CCC(=O)O)c(C)n3n2)c1	i
Clc1cccc(N=C2NN=C(c3ccc4c(c3)OCCO4)CS2)c1	1.6
CN(C)c1ccc(CNn2cnnc2SCc2ccc(F)cc2)cc1	0.1
C/C=C/c1ccc(OCCSc2nc(C)cc(=O)[nH]2)c(OC)c1	0.3
Cc1ccc(C)c(N2CCN(C(=O)CNS(=O)(=O)c3cccs3)CC2)c1	0.0
Cc1ccc(N2C(=O)c3ccccc3C2O)nc1 (configuration not stated)	i
CC1/C(=C\c2ccc(Cl)cc2)C(=O)C2CC1C2(C)C (configuration not stated)	2.4
CCOC(=O)c1c(CN2CCN(C)CC2)n(C)c2cc(Br)c(OC)cc12	i
Cn1cc(CN2CCN(c3ccccc3)CC2)c2ccccc21	i
CCC(=O)c1ccc(OCC(O)CN2CCN(C(c3ccccc3)c3ccccc3)CC2)cc1 (configuration not stated)	i
CCc1ccccc1NC(=O)c1cnc2n(c1=O)CCS2	2.0
O=C(CCc1ccccc1)Nc1cc(Cl)ccc1O	0.5
C=Cn1ccnc1P(=S)(c1nccn1C=C)C1CCCCC1	0.6
COc1cc(C=O)ccc1Oc1nnnn1-c1ccc(C(N)=O)cc1	i
c1ccc(Sc2nc(N3CCCCC3)nc(N3CCCCC3)n2)nc1	2.1
O=C(Nc1cccc2cccnc12)c1cccc2ccccc12	0.9
COc1ccc(OCCCC(=O)Oc2ccc(OC)cc2)cc1	i
CCc1cc(Br)ccc1N1C(=O)C2CC=CCC2C1=O (configuration not stated)	4.3
Cc1oc2nc(SCCCC(=O)NCCCO)nc(N)c2c1C	0.7
O=C(O)CCC(=O)N(Cc1cccnc1)Cc1cccc(F)c1	0.6

Later entries.
SMILES	H5N1 CPE
CCn1c(-c2ccc(C)cc2)n[nH]c1=S	1.1
CC(C)=CC(=O)OCC(=O)Nc1ccc(F)cc1Cl	0.7
COC(=O)Cc1c(C)nc2nc(-c3ccc(OC)cc3)[nH]n2c1=O	i
CCCC(NC(=O)CNC(=O)C(C)(C)C)C(=O)O (configuration not stated)	i
c1coc(CNc2c3c(nc4ncnn24)CCCC3)c1	14
NC(=O)C1(NC(=O)[C@@H]2CC3(CC(c4cccc(NC(=O)[C@@H]5CCC(=O)N5)c4)=NO3)CN2C(=O)c2cnccn2)CC1 (some centres not stated)	i
O=C(Cn1[nH]c(=O)c2ccccc2c1=O)Nc1ccc2c(c1)CCC2	i
O=C(CN1CCN(Cc2cccc(Cl)c2)C1=O)NCc1ccccn1	0.3
COc1ccccc1CNC(=O)C1CCCN1S(=O)(=O)c1cccc2cccnc12 (configuration not stated)	0.6
CCCNS(=O)(=O)c1ccc(CCC(=O)N2CCC(C)CC2)cc1	0.1
Cc1ccc(OCC(=O)N2CCN(C)CC2)c(Br)c1	0.5
O=C1C2CC=C(Cl)CC2C(=O)N1CCc1ccccc1 (configuration not stated)	1.2

Part of the list above in order of formula weight, largest number first.
SMILES	H5N1 CPE
CCCNS(=O)(=O)c1ccc(CCC(=O)N2CCC(C)CC2)cc1	0.1
O=C1C2CC=C(Cl)CC2C(=O)N1CCc1ccccc1 (configuration not stated)	1.2
CCn1c(-c2ccc(C)cc2)n[nH]c1=S	1.1

(listing goes on)
SMILES	H5N1 CPE
O=C(NC(NC(=S)Nc1cccc(Cl)c1)C(Cl)(Cl)Cl)OCc1ccccc1 (configuration not stated)	0.6
Cc1ccc2c(c1)N(CC(=O)N1CCc3ccccc3C1)C(=O)CO2	i
COc1cc2[nH]c(=S)n(N(C(C)=O)C(C)=O)c(=O)c2cc1OC	i
COCCn1c(C)cc(C(=O)CSc2nnc3ccccn23)c1C	2.4
CCOC(=O)N1CCN(CC(O)COCC2=CCC3CC2C3(C)C)CC1 (configuration not stated)	0.9
CCNc1nc2[nH]c(=O)c3c(c2s1)OC(N)=C(C#N)C3c1cccs1 (configuration not stated)	i
Cc1ccc(C(=O)Nc2ccc(CC(=O)O)cc2)o1	i
COc1ccc(N(CC(=O)Nc2cccc(SC)c2)S(C)(=O)=O)cc1	1.1
COc1cc(/C=C(\C#N)c2nc3ccccc3[nH]2)ccc1Oc1ccc([N+](=O)[O-])cn1	0.8
COC(CNC(=O)CCc1c(C)nc2c(-c3ccc(F)cc3)c(C)nn2c1C)OC	0.2

From PubChem
